AID504770: E. coli YBA685 growth inhibition, screen for V. cholerae RctB inhibitors | E. coli YBA685 rctB-dependent plasmid, OD600 growth, 3 h; hits give low values | z-score (concentration not given with the values) | 130,000 compounds, 0.27% hits;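 active means z-score under -2 on both plates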;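 further: wells of about 30 µL received 100 nL stock; score is relative to mean and SD of the test wells; the first replicate is given; strong numbers were not always called active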
Ba CapD inh: inhibitors of Bacillus anthracis CapD enzyme. purified CapD enzyme, fluorescence intensity read-out; hits give low values; some hits fall short of the stated cut. z-score (test concentration not listed). 140,000 compounds, 0.23% hits. AID 492967;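 active means z-score under -4 in either of two replicates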;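 further: stock transfer was 100 nL into about 40 µL; score is relative to mean and spread of the plate; one replicate is shown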
Active calls of the source: *; . = not tested or not shown.

Each structure is followed by: Ba CapD inh, AID504770
- Cc1n[nH]c(C)c1N1C(=O)c2cccc3c(Br)ccc(c23)C1=O
    -1.27, -0.05
- NC(CC(=O)OC1CCCCC1)C(=O)OC1CCCCC1 (configuration not stated)
    ., -0.25
- COc1ccc(OC2CCNCC2)cc1
    0.16, -0.3
- O=C(NCc1ccccc1)c1ccc2nc(N3CCCCC3)sc2c1
    0.35, -0.7
- COc1ccc(N2C(=O)CC(NC34CC5CC(CC(C5)C3)C4)C2=O)cc1 (configuration not stated)
    -0.125, -0.55
- CCn1c(C(=O)N2CCC(C(=O)NCc3cccc(OC)c3)CC2)cc2occc21
    0.025, 0.15
- CCC(C)(C)c1ccc(S(=O)(=O)N(CCN(C)C)Cc2ccccc2)cc1
    -0.455, .
- c1ccc(-c2nnc(-c3ccccc3)n2-c2ccncc2)cc1
    -0.31, -0.2
- CN1CCC(N(C(=O)/C=C/c2ccccc2)C2CCN(Cc3ccccc3)CC2)CC1
    0.06, .
- NS(=O)(=O)c1ccc(NC(=S)N2CCc3ccccc3C2)cc1
    0.21, 1.6
- Cc1nnsc1C(=O)NCc1c(Cl)cccc1Sc1ccc(Cl)cc1
    -1.4, 1.95
- COC(=O)c1c(C)nc(C)c(C(=O)OC)c1-c1csc(S(=O)(=O)N2CCSCC2)c1
    -0.48, -0.4
- CCOC(=O)c1c(C)n(-c2ccccc2)c2ccc(OC(=O)c3ccc(C)cc3)cc12
    0.97, .
- CC1(C)N=C(c2c(F)c(F)c(F)c(F)c2F)N(O)C1(O)c1ccccc1 (configuration not stated)
    0.375, 0.25
- NS(=O)(=O)c1ccc(CNCC(F)(F)F)cc1
    ., -0.4
- CCC(=O)Nc1sc2c(c1C(=O)N1CCCCC1)CCCCC2
    0.075, -0.85
- CCCOc1ccc(-c2nonc2NC(=O)c2oc3ccc(F)cc3c2C)cc1OCCC
    -0.095, -1.7
- CCOC(=O)C1=C(N)n2c(s/c(=C\c3ccccc3F)c2=O)=C(C#N)C1c1ccccc1F (configuration not stated)
    -0.245, .
- CCOC(=O)c1ccc(NC(=O)c2cnc3sccn3c2=O)cc1
    ., -1.1
- Cc1cccc(NC(=O)CSc2nc(N)c(C#N)c(-c3ccc(F)cc3)c2C#N)c1
    -0.315, .
- O=C(O)C1CCCCC1C(=O)NCC1CCCCC1 (configuration not stated)
    -0.185, 0.45
- O=S(=O)(NC1CCCCC1)c1cccc(-c2nnc(-c3ccccc3)o2)c1
    0.15, 0.95
- CC(=O)n1ccc2ccc(C(=O)CN3CCN(c4ccc(F)cc4)CC3)cc21
    3.26, -0.1
- Cc1ccc(OC(=O)c2ccco2)cc1C
    ., -0.35
- CC1(NC(=S)Nc2ccccc2)CCS(=O)(=O)C1 (configuration not stated)
    ., -0.65
- COC(=O)CN1C(=O)C2(C(C#N)=C(N)Oc3n[nH]c(-c4cccs4)c32)c2ccccc21 (configuration not stated)
    -0.13, .
- CN(C)c1c(F)cc(/C(N)=N/O)cc1F
    0.61, .
- Cn1cccc1C(=O)Nc1ccc2c(c1)nc1n2CCCCC1
    ., -1.05
- O=c1[nH]c2ccccc2c2ccccc12
    5.05, .
- Cc1ccc(-n2c(SCc3ccccc3)nnc2-c2cccnc2)cc1Cl
    -0.26, -0.8
- CCOc1ccc(N=c2scc(-c3ccc(Cl)s3)n2C)cc1
    0.2, 0.2
- O=C(Nc1cc(Cl)cc(Cl)c1)C1CC1
    0.395, -0.25
- N#CC(C(N)=S)=C1CCCCC1
    0.265, -2
- O=C(O)CCSc1ccc2ccccc2c1
    1.84, -1
- O=c1oc2c([N+](=O)[O-])cccc2cc1-c1nc(-c2ccc(Cl)cc2)cs1
    -0.14, .
- COc1ccc(NC(=O)CCCOc2ccccc2)cc1
    -0.085, -0.5
- COCC(C)NC(=O)C1CCN(S(=O)(=O)c2ccc(F)cc2)CC1 (configuration not stated)
    ., -3
- O=C(NC1CSC/C1=N\O)c1ccccc1 (configuration not stated)
    ., 2.55
- O=C(OCCCc1nc2ccccc2[nH]1)c1cccc(F)c1
    0.04, -0.95
- CN(C)c1ccc(C2C3=C(CC(C)(C)CC3=O)Oc3nc(N)c(C#N)c(N)c32)cc1 (configuration not stated)
    ., 0.3
- Cn1c(CSc2nc3ccccc3s2)nnc1SCC(=O)NCCO
    -0.175, -0.65
- O=C(c1cc(-c2ccc3c(c2)OCO3)on1)N1CCOCC1
    -0.26, 0.05
- CC(=O)Nc1ccc(S(=O)(=O)NC2(C(F)(F)F)NC(=O)N(C3CCCCC3)C2=O)cc1 (configuration not stated)
    0.49, 2.4
- CCOc1ccc(/C(O)=C2\C(=O)C(=O)N(c3nccs3)C2c2cccc(Oc3ccccc3)c2)cc1 (configuration not stated)
    -0.39, .
- CC1(C)CC2CC(C)(CN2c2nc3ccccc3[nH]c2=O)C1 (configuration not stated)
    ., -0.5
- CC1CC(C)CN(c2oc(-c3ccc(F)cc3)nc2C#N)C1 (configuration not stated)
    3.41, 0.65
- C=C(C)C[N+](C)(C)Cc1c(C)ccc2ccccc12
    0.56, 0.9
- COc1ccccc1C(=O)Oc1ccc(C#N)cc1
    ., -0.2
- COc1cc(Nc2nc3ccccc3n3nnnc23)cc(OC)c1OC
    -0.825, -0.95
- O=C(OCC1CCCCO1)N1CCC(C(O)(c2ccccc2)c2ccccc2)CC1 (configuration not stated)
    -0.49, .
- CCN(C(=O)c1ccc2c(=O)n3c(nc2c1)CCCCC3)c1cc(Cl)ccc1OC
    14.5, 0.45
- O=C(O)CC(CC(=O)Nc1ccc(N2CCOCC2)cc1)c1ccccc1 (configuration not stated)
    3.74, 0.45
- CCN(Cc1ccncc1)C(=O)C(COC(=O)N1CCN(c2cccc3[nH]ccc23)CC1)c1ccccc1 (configuration not stated)
    -0.15, .
- O=C(O)c1oc2ccc(Br)cc2c1-n1cccc1
    -0.655, -0.6
- CCOC(=O)c1c(CN2CCC(C(=O)OCC)(c3ccccc3)CC2)n(-c2ccccc2)c2cc(Br)c(O)cc12
    -0.25, .
- CC1Cc2ccccc2N1Cc1cccc(S(=O)(=O)N(C)C)c1 (configuration not stated)
    ., 1.4
- O=C(OCc1c(F)cccc1Cl)c1cccnc1SCc1ccc(Cl)cc1
    -0.12, .
- CC(C)(C)C1CCC(OC(=O)c2ccc3c(c2)OCO3)CC1 (configuration not stated)
    ., -0.85
- CCOC(=O)c1c(NC(=O)c2ccc(F)cc2)sc(C(=O)Nc2cc(C(F)(F)F)ccc2Cl)c1C
    0.81, .
- N#Cc1c(NC(=O)COC(=O)C2=COCCO2)oc(-c2ccccc2)c1-c1ccccc1
    ., -0.05

Additional entries
Each structure is followed by: Ba CapD inh, AID504770
- Cc1sc2nc(SCC(N)=O)n(-c3ccccc3)c(=O)c2c1C
    ., -0.55
- COC(=O)c1ccccc1NC(=O)Nc1ccc(Cl)cn1
    2.7, -0.5
- Cc1ccccc1NC(=O)C(C)Sc1nc2ncccc2o1 (configuration not stated)
    -2.46, 0.6
- Oc1ccccc1/C=N/c1nc(-c2ccccc2Cl)cs1
    0.665, 1.1
- CCCCCn1c(SCC(=O)NCc2ccccc2Cl)nc2cc(C(=O)N3CCC(C(N)=O)CC3)ccc2c1=O
    0.8, .
- Cc1csc(N(C(=O)/C=C/c2ccco2)c2ccccc2)n1
    ., -1.8
- Cc1cc(C)c(-n2c(SCC(=O)Nc3ccccc3Cl)n[nH]c2=O)c(C)c1
    -0.69, -1.1
- CCN1C(=O)C(=Cc2cc(C)n(C3CC3)c2C)C(=O)N(CC)C1=S
    -0.005, -0.75
- CC(/C=C1\SC(=S)N(CC(=O)Nc2cccnc2)C1=O)=C\c1ccccc1
    -0.81, 0.1
- O=C(NCc1ccccc1)c1ncn[nH]1
    ., 0.35
- CCN1C(=O)/C(=C2/C=Cc3ccccc3N2CC)N(C)C1=S
    -0.795, 1.6
- COC(=O)c1cc(-c2c(C)oc3cc(O)ccc3c2=O)c(C)o1
    ., 0
- O=c1cc(CSc2nnnn2-c2ccccc2)[nH]c(=S)[nH]1
    -0.935, -0.55
- CCOC(=O)c1c(C=O)oc2c(C)cc(OC(=O)c3ccc(Cl)cc3Cl)c(Br)c12
    -0.065, .
- Cc1cc(C)n(CCCNC(=O)CSc2ncnc3scc(-c4ccccc4)c23)n1
    ., -0.75
- O=C(CCSc1nc(-c2ccco2)cc(C(F)(F)F)n1)N1CCCC1
    ., 0.85
- O=C(CSc1ncc(-c2ccccc2)[nH]1)c1ccc(-c2ccccc2)cc1
    -0.505, -0.3
- Cc1ccc2oc3ncc(C(=O)NC(C)(C)C)cc3c(=O)c2c1
    3.73, -1.05
- CN(Cc1ccccc1)C(=O)CSc1nnc(-c2cc(N(C)C)nc(N(C)C)n2)n1C
    29.9, .
- CCn1cc(C(=O)O)c(=O)c2cc(F)c(N(C)CCc3ccc(OC)c(OC)c3)cc21
    3.97, -1.5
- O=c1c(-c2ccccc2F)coc2cc(O)cc(O)c12
    0.06, -0.55
- c1ccc(-c2cc3c(ncn4cnnc34)s2)cc1
    5.62, -0.35
- COc1cc(Cl)c(C)cc1NC(=O)CSC
    0.6, 0.45
- COc1cccc(C2NC(=O)NC(C)=C2C(=O)OCCOc2ccccc2)c1OC (configuration not stated)
    0.745, .
- N#C/C=C1\SCC(=O)N1CC(=O)c1ccc(Br)cc1
    ., 1.15
- CN(C)C12CC3CC(CC(C(=O)O)(C3)C1)C2
    0.45, -1.25
- Cc1ccc(NC(=O)CSc2nnc(C)n3c2cc2sccc23)cc1F
    -2.85, -1
- COc1ccc(C2=C(c3ccc(OC)cc3)C3C(=O)C2C2C(=O)N(c4cccc5ccccc45)C(=O)C32)cc1 (configuration not stated)
    -0.305, .
- O=C(/C=N/O)NCc1ccccn1
    -0.07, -0.25
- CCOc1ccccc1N1CC(C(=O)NC2CCCCCC2)CC1=O (configuration not stated)
    ., 0.3
- O=c1cc(CO)oc2c1OCN(C1CCS(=O)(=O)C1)C2 (configuration not stated)
    ., 1.7
- CCOC(=O)c1c(C)oc2cc(Br)c(OCc3ccc([N+](=O)[O-])cc3)cc12
    0.26, .
- CC(=O)N(CC1CCCO1)C1(C(=O)NC2CCCC2)CCCCC1 (configuration not stated)
    0.23, 0.25
- Cn1c2nc3ccccc3nc2c2c(=O)n(Cc3ccccc3)cnc21
    9.45, -0.95
- N#C/C(=C\C=N\Nc1ccccc1)c1nn(-c2ccccc2)c(-n2cccc2)c1C#N
    -0.745, -0.6
- COc1ccc(/C=N/O)cc1Cl
    -0.26, -0.4
- N#CC(C#N)C(CC(=O)c1ccccc1)c1ccccc1 (configuration not stated)
    2.8, -0.85
- CCN1C(C)=C(C)S/C1=C1\SC(=S)N(NC(C)=O)C1=O
    -0.74, .
- CCCn1c(C)cc(/C=C(\C#N)C(=O)Nc2ccccc2)c1C
    ., 0.05
- Cc1ccc(SCCN2C(=O)NC3(CCCC3)C2=O)cc1
    ., -0.05
- O=C(CCCc1c[nH]c2ccccc12)NCCN1CCOCC1
    0.545, -1.35
- COC(CNC(=O)c1c[nH]c2ccc(S(=O)(=O)N(C)c3ccc(C(C)C)cc3)cc2c1=O)OC
    3.65, 0.4
- CCCCC(=O)N(c1ccc(C)c(C)c1)C1C=CS(=O)(=O)C1 (configuration not stated)
    ., -0.45
- CC(CC1OCC(CN2CCCCC2)O1)CC(C)(C)C (configuration not stated)
    -0.185, -1
- Cc1cc(C)n2nc(SC/C(N)=N/O)nc2n1
    0.545, 1.85
- O=C(CSc1n[nH]c(-c2ccccc2F)n1)NN1C(=O)NC2(CCCCC2)C1=O
    ., -0.35
- O=C(CN1CCOCC1)Nc1nnc(SCC(=O)N2c3ccccc3Sc3ccccc32)s1
    -0.625, .
- COc1ccc(CNC(=O)C2c3ccccc3C(=O)N(C)C2c2cccs2)cc1 (configuration not stated)
    0.935, .
- O=C(Oc1ccc(-c2nccc(-c3cccs3)n2)cc1)c1ccccc1
    0.775, .
- CCNc1nc(NCC)nc(NCCO)n1
    ., -0.45
- CC(=O)Nc1ccc2nc(NC(=O)c3ccc(S(=O)(=O)N4CCCCC4)cc3)sc2c1
    -0.005, .
- O=C(c1ccccc1)N1CCN(C(=O)c2ccco2)CC1
    -0.16, -1.95
- C1=C(c2cccs2)OC(c2cccs2)=CC1c1cccs1
    ., 2.15
- O=C1CCCC2=C1C(c1ccc(Cl)cc1)c1c([nH]c(=O)[nH]c1=O)N2 (configuration not stated)
    1.11, 0.4
- COc1ccccc1Cn1c(=S)[nH]c2cc(C(=O)NCC(OC)OC)ccc2c1=O
    -0.245, 0.35
- COc1ccc(C(=O)NC(=O)CSc2nc3cc(S(=O)(=O)N4CCCCC4)ccc3o2)cc1
    ., -0.55
- O=C(NCc1ccc2c(c1)OCO2)c1cccs1
    -0.39, 0.65
- COc1cccc(N/C(SCc2cccc(F)c2)=C(/C#N)C(=O)NCc2ccccc2)c1
    -0.68, .
- CCc1cc2c(=O)c(Oc3ccccc3F)c(C)oc2cc1OCC(=O)O
    0.175, 0.45
- COc1ccc(Nc2nc(N3CCOCC3)c3ccccc3n2)cc1
    -0.635, .
- CC1CCN(C(c2ccncc2)c2ccc3cccnc3c2O)CC1 (configuration not stated)
    ., 0.05

A different layout for 2 compounds above:
| Molecule | Ba CapD inh | AID504770 |
| --- | --- | --- |
| Cn1c2nc3ccccc3nc2c2c(=O)n(Cc3ccccc3)cnc21 | 9.45 | -0.95 |
| N#C/C(=C\C=N\Nc1ccccc1)c1nn(-c2ccccc2)c(-n2cccc2)c1C#N | -0.745 | -0.6 |

Four entries from above in a different format:
Structure: N#CC(C#N)C(CC(=O)c1ccccc1)c1ccccc1 (configuration not stated)
  Ba CapD inh: 2.8; AID504770: -0.85

Structure: CCN1C(C)=C(C)S/C1=C1\SC(=S)N(NC(C)=O)C1=O
  Ba CapD inh: -0.74; AID504770: .

Structure: CCCn1c(C)cc(/C=C(\C#N)C(=O)Nc2ccccc2)c1C
  Ba CapD inh: .; AID504770: 0.05

Structure: Cc1ccc(SCCN2C(=O)NC3(CCCC3)C2=O)cc1
  Ba CapD inh: .; AID504770: -0.05
